Assay outcomes as filed in PubChem BioAssay.
Ecoli rRNA inh: reduced GFP signal of wild-type E. coli, primary screen, bacterial rRNA inhibitor project, GFP/RFP fluorescence, OD600, single point; GFP signal change (wild-type ribosome), % (concentration not given with the values); E. coli WT GFP vs humanized-ribosome RFP mutants, 24 h; active compounds read low; DMSO median 0, no signal -100; actives 1.6% (n = 350,000);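 active means significant combined selectivity score with lowered wild-type GFP, culture density cut under 30%, mutant RFP and density less affected; inactive means any of these conditions unmet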; further: one replicate is shown; some compounds called inactive have numbers as strong as hits
T cruzi repl: inhibitors of intracellular T. cruzi growth, primary screen, luminescence, NIH3T3 host cells; actives 1.4% (n = 300,000); inhibition, % (concentration not given with the values); T. cruzi beta-gal in NIH3T3, 90 h;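 active means mean inhibition across valid replicates above about 55%, limit read from the data; inconclusive means mean below that limit but half or more replicates reach it; inactive means mean below it, under half of replicates reach it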;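 further: signal also drops with host cell toxicity which is not excluded here; 0% = plate median of DMSO wells and 100% = zero luminescence signal; higher percent means less beta-gal luminescence so fewer parasites; stock transfer was 50 nL into about 50 µL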
AF4-AF9 inh: inhibitors of AF4 peptide binding to AF9, primary screen, biochemical, AlphaScreen, biotin-AF4 peptide, FLAG-AF9, single point | inhibition, % at 10 µM | AID 651704, 2012 | actives 0.47% (n = 350,000);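 active means every replicate reaching a set inhibition limit, whatever the replicate mean, cut at about 25% in these data; inconclusive means mean inhibition reaches that limit but some replicates miss it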;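 further: 0% = plate neutral control median and 100% = total signal loss; the record names both 10 and 1 µM as test concentration; the first replicate is given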
Target sequence (P42568 whole entry, looked up): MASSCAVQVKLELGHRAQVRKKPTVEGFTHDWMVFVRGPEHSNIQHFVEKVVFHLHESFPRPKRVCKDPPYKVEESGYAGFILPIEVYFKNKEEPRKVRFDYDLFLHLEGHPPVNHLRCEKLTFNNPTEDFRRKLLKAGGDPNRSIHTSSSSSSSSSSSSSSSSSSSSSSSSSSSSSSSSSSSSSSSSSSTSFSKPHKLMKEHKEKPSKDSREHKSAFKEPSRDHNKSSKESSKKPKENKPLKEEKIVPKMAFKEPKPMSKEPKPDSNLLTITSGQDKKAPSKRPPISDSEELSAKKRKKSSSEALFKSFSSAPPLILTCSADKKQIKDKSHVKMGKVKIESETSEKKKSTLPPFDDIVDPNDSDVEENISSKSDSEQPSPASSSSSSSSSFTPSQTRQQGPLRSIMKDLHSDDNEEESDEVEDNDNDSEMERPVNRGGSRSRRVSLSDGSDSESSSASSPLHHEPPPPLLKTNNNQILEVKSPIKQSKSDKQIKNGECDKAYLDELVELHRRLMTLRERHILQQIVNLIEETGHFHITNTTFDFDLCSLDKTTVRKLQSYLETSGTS
Beta apoptosis: inhibitors of cytokine-induced beta cell apoptosis, primary screen, luminescence | INS-1E cytokine-induced death, ATP luminescence, 48 h; percent of positive-control rescue, neutral wells zero | actives 0.8% (n = 300,000) | protection from apoptosis, % (no concentration beside the values);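 active means all replicates at 75% or more, or half of them and the mean; inconclusive means half reach 75% but not the mean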;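 further: 0% = cytokine-treated negative control wells and 100% = positive control rescue; higher means more ATP so stronger rescue from cytokine killing; wells of about 40 µL received 100 nL stock; the first replicate is given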
A1 inh: caspase 3/7 activation in MEF A1-2A-BIM cells, primary screen, A1 inhibitor project, cell-based, luminescence, HTS; Caspase-Glo 3/7 luminescence, 3 h; percent of clofoctol response, vehicle zero; caspase activation, % (no concentration beside the values); actives 0.066% (n = 330,000);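 active means over half of replicate activation scores above 10%, or exactly half above 10 with the replicate mean above 10; inconclusive means replicate mean below 10 yet half the replicates above 10; inactive means over half of replicates below 10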;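 further: wells of about 30 µL received 50 nL stock; many hits fall short of the cut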
RanGTP-Impb inh: inhibitors of RanGTP-importin-beta interaction, primary screen, biochemical, FRET, CFP-Ran, YFP-importin-beta, homogeneous; Ran GTPase (GTP-bound) - importin-beta complex; cell-free CFP-Ran/YFP-importin-beta FRET ratio; inhibition, % (no concentration beside the values); actives 1.1% (n = 300,000); AID 2216, 2009;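 active means most replicates above 15%; inconclusive means exactly half above 15%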;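 further: 0% = DMSO wells and 100% = Ran loaded with GDP instead of GTP; wells of about 40 µL received 100 nL stock; the first replicate is given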
Vif TR-FRET: inhibitors of Vif binding to APOBEC3G peptide, primary screen, biochemical, TR-FRET, GST-Vif 1-94, biotin-A3G peptide, dose response retest (AID 1117319) | Virion infectivity factor (Human immunodeficiency virus type 1 group M subtype B (isolate … | TR-FRET GST-Vif / biotin-A3G peptide binding; higher % means a stronger effect; test concentration not given here; strong numbers were not always called active | one-dose inhibition, %; IC50 in µM for titrated hits | actives 0.57% (n = 260,000);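 active means above the screen mean plus three standard deviations and confirmed in dose response; inconclusive means results disagree or hit not tested in dose response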;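 further: Vif residues 1-94 fused to GST binding biotinylated APOBEC3G peptide 110-148; 0% = full assay without inhibitor and 100% = GST in place of GST-Vif; retest series ran down from 100 µM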
Calb FLC: C. albicans growth inhibition with fluconazole, primary screen, CaCi-2 strain, Alamar Blue fluorescence; actives 0.57% (n = 300,000); AID 1979, 2009; C. albicans CaCi-2 (fluconazole-resistant clinical isolate) + fluconazole, 48 h; growth inhibition, % (no concentration beside the values);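 active means most replicates above 75%; inconclusive means exactly half above 75%; inactive means most below 75%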;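 further: all wells also contain fluconazole at 8 µg/ml as a sub-toxic cotreatment; 0% = median of DMSO wells and 100% = median of geldanamycin control wells; wells of about 8 µL received 7.5 nL stock; the first replicate is given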
Ecoli rRNA inh OD600: recorded beside Ecoli rRNA inh, whose call it bears; OD600 change, %; measured here: OD600 growth;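 optical density of the mix in the first replicate; 0 = DMSO median and -100 = no signal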
Ecoli rRNA inh RFP: also measured in Ecoli rRNA inh; calls as there; RFP signal change, %; measured here: RFP humanized mutant strains;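 first replicate; 0 = DMSO median and -100 = no signal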
The depositor's hits bear a star; ? = inconclusive; . = no result given. This is a subset; rates above refer to the full screens.

SMILES | Ecoli rRNA inh | Ecoli rRNA inh OD600 | Ecoli rRNA inh RFP | T cruzi repl | AF4-AF9 inh | Beta apoptosis | A1 inh | RanGTP-Impb inh | Vif TR-FRET | Calb FLC
CC1Cc2cc(/C=C3/SC(N4CCC(C(N)=O)CC4)=NC3=O)ccc2O1 (stereo not given) | -1.6 | 1.4 | -1.4 | -8.5 | 0.4 | -8.3 | 0.0 | 1.7 | -14.1% | -4.3
CCN1C(=NCc2ccc(OC)cc2)N[C@@H](c2ccccc2)[C@H](C(=O)OC)[C@H]1C | 12.8 | 13.5 | -4.6 | . | -8.3 | -2.9 | -0.1 | . | . | .
CCCCC#Cc1cncc(C(=O)NN)c1 | -15.4 | -10.0 | 4.6 | -6.4 | 1.6 | 3.1 | 0.8 | -0.3 | ? | -14.8
COCCOC(=O)C1=C(C)NC(=O)NC1c1cn(-c2ccccc2)nc1-c1cccs1 (stereo not given) | . | . | . | 9.2 | . | -1.7 | 0.5 | 0.9 | ? | -6.9
Cc1[nH]n2c(=O)c3c(nc2c1-c1ccccc1)CCCC3 | . | . | . | 3.4 | . | -5.7 | 0.9 | -1.1 | 3.7% | 4.0
COc1ccc(-c2nnc(-c3ccc(Br)o3)o2)cc1OC | . | . | . | 4.7 | . | 2.7 | -1.7 | 0.3 | -8.4% | 43.9
CCOc1ccccc1OCCn1nc2ccccc2n1 | -3.8 | 0.2 | -2.0 | -7.4 | -2.3 | -6.1 | 0.1 | 0.3 | . | -2.0
O=C(O)CC1COc2ccccc2N1C(=O)c1ccccc1Cl (stereo not given) | 5.9 | 2.0 | -2.7 | -1.9 | 5.2 | -2.9 | -0.5 | ? | -1.9% | -2.1
CN(CCCC(=O)Nc1ccccc1F)S(=O)(=O)c1ccc(F)cc1 | -3.9 | -16.5 | -3.4 | 7.5 | -2.4 | -1.6 | 1.4 | 4.1 | -1.1% | 16.7
Cc1cc2c3c(c1)C1(C(=O)N3C(C)(C)CC2C)C(C#N)=C(N)OC2=C1C(=O)CC(C)(C)C2 (stereo not given) | . | . | . | 4.3 | . | -1.4 | 0.3 | -4.0 | -5.4% | 2.7
COc1cc(C)ccc1N(CCCN1C(=O)c2cccc3cccc(c23)C1=O)C(=O)c1cccs1 | . | . | . | 31.1 | . | 7.1 | ? | 1.5 | 9.2% | 0.7
CCCCNC(=O)N(c1c(N)n(Cc2ccccc2)c(=O)[nH]c1=O)C1CCCC1 | 4.7 | 3.4 | -1.4 | -2.1 | -6.5 | -1.4 | 0.3 | 2.2 | -2.8% | 6.4
Clc1ccc(-c2nnc(SCc3nc4ccccc4[nH]3)o2)c(Cl)c1 | . | . | . | 5.2 | . | -3.2 | 0.7 | 32.4* | 8.7% | -3.2
CCOCc1nnc(NC(=O)C2CC(=O)N(C3CCCC3)C2)s1 (stereo not given) | 7.3 | 23.8 | 1.5 | 0.8 | -2.5 | 0.7 | 0.4 | 3.4 | -4.9% | 2.1
O=S(=O)(O)c1nc2ccccc2[nH]1 | 0.2 | 2.2 | -9.3 | 1.9 | . | -2.4 | -0.4 | 8.2 | 0.3% | 5.6
CCC(Oc1ccccc1)C(=O)NC1C(=O)N2C1SC(C)(C)C2C(=O)O (stereo not given) | 11.3 | 8.3 | 3.4 | -16.3 | -5.2 | -8.7 | 0.0 | 9.5 | 9.4% | 9.3
CCc1ccc(C2(C)SC(NC(C)=O)=NN2C(C)=O)cc1 (stereo not given) | . | . | . | 25.7 | . | 2.6 | -0.8 | ? | 7.5% | -25.8
O=C(O)C1CCCCC1C(=O)NCc1ccccn1 (stereo not given) | 16.6 | 15.9 | -0.5 | -5.1 | -0.6 | -1.2 | -0.5 | -1.9 | . | -3.7
Fc1ccccc1CNC(=S)NC1CCCCC1 | 2.6 | -5.7 | -1.4 | -27.3 | 0.8 | -6.0 | 0.0 | -0.4 | . | -11.5
CC(C)(C)c1ccc(C(=O)NCCC(=O)NNC(=O)COc2ccc(F)cc2)cc1 | 11.1 | 10.6 | 0.1 | . | -3.4 | 3.8 | 0.4 | . | . | .
O=C(C1CCC1)N1CCc2cc(S(=O)(=O)N3CCc4ccccc4C3)ccc21 | . | . | . | 20.0 | . | . | -0.1 | 5.9 | . | -1.8
Cn1c(=O)c2c(nc(CN3CCN(C(=O)c4ccco4)CC3)n2Cc2ccccc2F)n(C)c1=O | -2.2 | 4.7 | -11.2 | 8.9 | -2.4 | 5.0 | -0.5 | 3.8 | -1.3% | 1.3
COc1ccccc1C(=O)NCCC(=O)N(C)Cc1cccs1 | 4.6 | -0.3 | 0.5 | 7.7 | 0.6 | -8.6 | 0.8 | ? | 0.2% | -9.0
C/C(=N\NC(=S)Nc1ccc(F)cc1)c1ccc2c(c1)OCCO2 | -14.3 | -4.7 | 0.9 | 43.2 | 0.6 | 11.4 | 0.1 | 0.6 | . | 3.4
O=C(COc1c(Cl)cccc1Cl)NN1C(=O)CSC1=S | -1.7 | -2.5 | 15.7 | 2.6 | -1.2 | -6.7 | 0.3 | 10.1 | 4.4% | 36.8
COc1ccc(NC(C)C(=O)N/N=C/c2cc(Br)ccc2OC)cc1 (stereo not given) | -6.1 | 1.3 | -0.4 | 2.6 | 3.0 | 3.2 | 0.7 | -5.0 | 16.7% | 34.0
CC(C)(C)NC(=O)C(c1cccs1)N(Cc1ccc(F)cc1)C(=O)c1csnn1 (stereo not given) | 0.3 | 2.9 | -3.0 | 18.1 | 0.5 | . | 0.7 | -0.7 | -2.8% | 17.7
O=C(NCCN1CCOCC1)c1cc(-c2ccc(Cl)cc2)on1 | 7.3 | -0.4 | -5.8 | 7.3 | 5.1 | -4.5 | 0.5 | 0.7 | 13.0% | -1.0
O=C(Nc1cc(Cl)ccc1-n1cncn1)c1ccco1 | 12.3 | 14.3 | 0.7 | -14.1 | 1.1 | -7.3 | 2.6 | 3.0 | . | -1.9
CN(C)CCN(C(=O)c1cccs1)c1nc2cc3c(cc2s1)OCCO3 | 10.1 | -0.2 | -0.1 | 22.7 | 6.2 | -4.4 | 0.5 | 0.6 | . | -2.1
CC1CCCCC1NC(=O)c1ccc(S(=O)(=O)NNC(=O)c2ccncc2)cc1 (stereo not given) | 9.0 | 7.7 | -2.4 | -13.1 | -6.0 | -0.9 | 0.0 | 0.5 | 0.0% | 1.2
CCN1CCN(c2ncc(C(=O)N3CCCc4ccccc43)c3ccccc23)CC1 | . | . | . | 11.5 | . | -2.0 | -0.7 | 2.5 | 2.1% | 3.4
COc1ccc(N2CCN(C(=O)COCC(=O)O)CC2)cc1 | 13.1 | 10.7 | -0.2 | -8.2 | -0.4 | . | 0.8 | 0.8 | -0.2% | 2.0
CC(OC(=O)C1CCN(S(=O)(=O)c2ccc(Cl)cc2)CC1)C(=O)NC1CCCCC1C (stereo not given) | 9.3 | -0.9 | 0.7 | -11.3 | -0.3 | 1.5 | 0.6 | -2.6 | . | -5.3
O=C(CSc1ccc2nnc(CCNC(=O)c3ccc(F)cc3)n2n1)NCc1ccco1 | 14.5 | 18.4 | 3.3 | -7.0 | -5.9 | -5.0 | 1.7 | . | 10.0% | .
Cc1ccc(N=Cc2c(O)c3ccccc3oc2=O)c(C)c1 | 12.0 | 1.9 | -0.9 | -1.9 | -1.8 | -6.9 | -8.6 | -1.7 | . | -2.8
COc1ccc(N2CCN(C(c3cccs3)C(C)NC(=O)c3ccco3)CC2)cc1 (stereo not given) | . | . | . | -3.1 | . | . | -1.4 | ? | 7.2% | 10.9
Cc1ccc(SCCC(=O)NCc2ccccn2)cc1 | 8.9 | 9.3 | 0.6 | -20.4 | -2.0 | -0.8 | 0.0 | 5.6 | -2.6% | 4.1
CCOC(=O)C1=C(CC)Nc2ccccc2N=C1NC(=O)c1ccc(OC)c(S(=O)(=O)N2CCCCC2C)c1 (stereo not given) | 2.4 | 7.2 | 0.1 | 31.7 | 0.3 | 8.1 | 0.4 | 2.2 | -5.4% | 1.9
O=C(NCc1ccccc1Cl)c1cnc2n(c1=O)CCS2 | 3.3 | 7.6 | -1.7 | -4.2 | -6.8 | 2.3 | -0.4 | -1.0 | -5.6% | -2.0
O=C(O)CCC(=O)Nc1ccc(C(=O)OCC(=O)c2ccc(Cl)cc2Cl)cc1 | -32.3 | -35.7 | -2.6 | -8.8 | -0.4 | -5.7 | 0.0 | 5.1 | 18.3% | 35.2
CC(C)Nc1nc(-c2ccncc2)nc(-c2ccccc2)c1C#N | 22.4 | 13.6 | 1.8 | 23.4 | -1.7 | -1.6 | -0.2 | 8.8 | -25.7% | -1.1
CCNCc1nc2cc(Cl)ccc2c(=O)[nH]1 | 19.2 | 9.4 | 3.0 | 4.7 | -1.7 | 2.9 | 1.9 | -1.7 | 24.6% | -8.3
Nc1c(C(=O)c2ccccc2)sc2nsc(SCCN3CCCC3)c12 | -11.9 | -25.1 | -6.8 | 55.3* | 4.7 | -10.0 | -0.7 | -55.8 | -8.4% | -21.1
COC(=O)c1cc(C)nc(Sc2ccccc2N)n1 | 16.0 | 17.3 | 1.6 | 54.0 | -5.0 | -7.8 | 0.2 | -4.7 | 14.5% | 1.0
CC(NCC(O)COC1CCC(C(C)(C)C)CC1)c1ccccc1 (stereo not given) | -53.0 | -79.3 | -18.2 | 74.9* | 3.7 | 4.6 | -0.4 | . | -0.2% | -22.6
CCCCn1c(N)c(N(CCOC)C(=O)C2CC(=O)N(Cc3ccco3)C2)c(=O)[nH]c1=O (stereo not given) | 7.3 | 9.6 | 1.3 | . | -0.7 | -5.1 | 0.4 | . | -11.7% | .
CCN(CC)CCN1C(=O)C(=O)/C(=C(/O)c2cnn(-c3ccccc3)c2C)C1c1cccnc1 (stereo not given) | . | . | . | -4.4 | . | -4.8 | 2.3 | 0.5 | 0.4% | -0.5
CCC(C)(C)n1nnnc1CN(Cc1cccs1)Cc1cc2cc(OC)ccc2[nH]c1=O | -19.2 | -27.3 | 6.7 | 24.3 | -34.0 | 8.0 | -0.3 | -5.6 | -2.0% | -7.4
Cc1cccnc1NC(=O)C1c2ccccc2Oc2ccccc21 | 10.5 | -0.9 | -0.2 | -6.2 | 2.4 | 0.3 | 2.4 | -3.2 | 3.1% | -2.4
O=C(COc1ccc(Cl)cc1Br)Nc1nnc(C2CC2)s1 | -2.7 | 11.4 | -0.2 | . | -0.8 | 2.3 | 1.9 | . | 10.1% | .
Nc1ccc(/C=C/c2ccc3ncccc3c2)cc1 | -7.4 | -4.6 | -3.4 | -0.7 | -6.8 | -3.9 | -0.1 | 4.1 | 23.1% | -15.6
